# VACV mCherry inh – vaccinia inhibition (mCherry reporter). Vaccinia virus mCherry reporter infection, fluorescence; about a quarter of the inactives have no number. Potency, µM (doses to about 36.5 µM), for inactives: top-dose activity change, negative = inhibition, usual class: inhibitors. actives 0.63% (n = 310,000); active = well fitted inhibition curve with a large enough effect; inconclusive = small, poorly fitted or top-dose-only effect; inactive = no such curve, though single readings can be large or run the other way; tested in A549 cells; further: nearly all actives have a fitted effect of over 35% in size; inactives centre near -10
# Vaccinia Venus – vaccinia inhibition (Venus reporter); AID 720580; actives 0.46% (n = 330,000); Vaccinia virus Venus reporter expression, fluorescence; Potency, µM (titrated, usually from 36.5 µM), without a hit: at the highest dose activity change, negative = inhibition, actives largely listed as inhibitors; active means well fitted inhibition curve with a large enough effect; inconclusive means small, poorly fitted or top-dose-only effect; inactive means no such curve, though single readings can be large or run the other way; tested in A549 cells; further: nearly all actives have a fitted effect of over 30% in size; inactives centre near -10
# The depositor's hits bear a star; i = inactive; ? = inconclusive; . = no result given; & = joins results of further samples; [ ] = another dose, or the depositor's remark. On the % scale 0 is the no-effect control and ±100 the full control effect; potency means the concentration at half of the fitted maximal effect.
no.	mol	Vaccinia Venus	VACV mCherry inh
1	COc1ccc(C(=O)C2CCCN(Cc3cn[nH]c3-c3ccccc3)C2)cc1OC (stereo not given)	-9%	i
2	CCC1=C2CC[C@H]3C(=O)N(c4ccccc4)C(=O)[C@H]3[C@H]2[C@@]2(C)C(=NCc3ccccc3)OC(=O)N2C1=O	-6%	-8%
3	Cc1nc2nc(C)c(NS(=O)(=O)c3ccc(C4CCCCC4)cc3)c(=O)n2[nH]1	-1%	-5%
4	O=C(CN1CCN(c2ncccn2)CC1)NCc1ccccc1	-2%	.
5	Cc1ccc(NC(=O)c2ccc(CSc3nnc(C)s3)cc2)c(C)c1	-19%	.
6	Cc1cn(C2C=CC(CO)O2)c(=O)[nH]c1=O (stereo not given)	-7%	-13%
7	Cc1cc(C)c2oc(C(=O)Nc3ccc(S(=O)(=O)N4CCCC(C)C4)cc3)cc(=O)c2c1 (stereo not given)	-16%	i
8	O=C(NCCO)c1nc2ccccc2s1	-6%	i
9	COc1ccc(NC(=O)Nc2ccccc2OC)cc1	-6%	0%
10	CCCCn1c(=O)n(CC2CCC(C(=O)NCCCOC)CC2)c(=O)c2sccc21 (stereo not given)	-2%	-15%
11	CCOC(=O)c1[nH]c(C(=O)O)c(CCN(CC)CC)c1C	0%	i
12	N#Cc1ccccc1-n1c(N)c(C(=O)N2CCCC2)sc1=S	-15%	-7%
13	O=C(Cc1ccc(F)cc1)N1CCN(c2ccc(F)cc2)CC1	-3%	-10%
14	NC(=O)NC(=O)COC(=O)CCCc1c[nH]c2ccccc12	-12%	i
15	CCN1C(=O)C(O)(C2COC(C)(C)CC2=O)c2cc(Br)ccc21 (stereo not given)	-2%	-26%
16	COc1cc(CN2CCCC(C(=O)Nc3cccc(-n4cccn4)c3)C2)ccc1F (stereo not given)	-9%	i
17	C=CCNC(=O)c1onc(CS(=O)(=O)c2cc(C)cc(C)c2)c1C(=O)NCC=C	-12%	-5%
18	COc1ccc(S(=O)(=O)N(C)CC(=O)O)c2ccccc12	-4%	i
19	CC(C)c1cc(C(=O)NCCc2cccs2)c(N)s1	10%	?
20	Cc1ccc(NC(=O)CN(C)C(=O)c2sc3cc(Cl)ccc3c2Cl)cc1	-11%	i
21	COc1ccc(N(C(=O)C2CSC(=O)C2)C(C(=O)NC(C)(C)C)c2ccncc2)cc1 (stereo not given)	-10%	i
22	NC(=O)CSc1nccn1Cc1ccc2c(c1)OCO2	-9%	-1%
23	Cc1ccc(C(c2sc3ncnn3c2O)N2CC(C)CC(C)C2)cc1 (stereo not given)	-20%	-10%
24	CCn1c(/C=C/N(C(C)=O)c2ccccc2)[n+](CC)c2ccc(Cl)cc21	-1%	i
25	CC(C)(C)NC(=O)Cn1nnc(-c2ccccc2Cl)n1	-8%	-11%
26	Cn1nnnc1SCc1cc(=O)n2ccsc2n1	-6%	-14%
27	N/C(=N\OC(=O)COc1ccc(Cl)cc1Cl)c1ccccn1	-5%	-8%
28	C=CCNC(=S)NNC(=O)c1csc(CC)c1	-5%	-11%
29	C[C@H](CO)N1C[C@H](C)[C@@H](CN(C)CC2CC2)Oc2c(NS(=O)(=O)c3ccc(F)cc3)cccc2C1=O	-21%	i
30	COc1ccc(OC)c2sc(NC(=O)C3=COCCO3)nc12	-23%	-18%

# Fetched by structure from the entries so far, 6 records:
no.	mol	Vaccinia Venus	VACV mCherry inh
23	Cc1ccc(C(c2sc3ncnn3c2O)N2CC(C)CC(C)C2)cc1 (stereo not given)	-20%	-10%
1	COc1ccc(C(=O)C2CCCN(Cc3cn[nH]c3-c3ccccc3)C2)cc1OC (stereo not given)	-9%	i
28	C=CCNC(=S)NNC(=O)c1csc(CC)c1	-5%	-11%
5	Cc1ccc(NC(=O)c2ccc(CSc3nnc(C)s3)cc2)c(C)c1	-19%	.
2	CCC1=C2CC[C@H]3C(=O)N(c4ccccc4)C(=O)[C@H]3[C@H]2[C@@]2(C)C(=NCc3ccccc3)OC(=O)N2C1=O	-6%	-8%
11	CCOC(=O)c1[nH]c(C(=O)O)c(CCN(CC)CC)c1C	0%	i

# The results go on:
no.	mol	Vaccinia Venus	VACV mCherry inh
31	COc1ccc(-c2cc(C(=O)Nc3ccccc3N3CCOCC3)c3ccccc3n2)cc1OC	-19%	-4%
32	COCc1cccc(-c2csc(C(C)(O)c3cccc(F)c3)n2)c1 (stereo not given)	-22%	?
33	CC(C)N(C(=O)Cn1c(Cl)nc2ccccc21)C(C)C	-5%	-2%
34	Cc1ccccc1NC(=O)Nc1nnc(N(C)Cc2ccccc2)s1	-18%	-25%
35	COc1ccc(C(C)C)cc1S(=O)(=O)NCCCn1ccnc1	-15%	-14%
36	O=C(COc1ccc(-c2nnco2)cc1)Nc1ccc(C(F)(F)F)cc1	-7%	i
37	CCc1noc(C)c1C(=O)N(CC)CC(=O)Nc1ccccc1C(F)(F)F	-15%	-27%
38	CCCCn1c(CNC(=O)CCC)nc2ccccc21	-6%	-25%
39	O=C(NCc1ccc(Cl)cc1)c1ccc2oc(=O)n(Cc3ccccc3)c2c1	-14%	-17%
40	COc1ccc(Cc2noc(CN(C)CCc3ccccc3)n2)cc1OC	-16%	-7%
41	CC1CCN(C(=O)COC(=O)c2ccc3c(c2)C(=O)N(Cc2ccco2)C3=O)CC1	-2%	-15%
42	Cc1cccc(C(=O)N2CCC(C)(C(=O)NS(=O)(=O)C3CC3)C2)c1C (stereo not given)	-1%	40%[activator]
43	COC(=O)CC1SC(=O)NC1=Nc1ccc(C)cc1 (stereo not given)	2%	-7%
44	Cc1onc(-c2ccccc2)c1C(=O)NCc1cccs1	-3%	i
45	CSc1oc(-c2ccco2)nc1S(=O)(=O)c1ccc(C)cc1	-8%	-25%
46	CCOC(=O)Nc1nc(-c2ccccc2)c(C(=O)c2ccc(Cl)cc2)s1	?	.
47	COc1ccc2cc(C#N)c(SCC(=O)Nc3nonc3C)nc2c1	-20%	-10%
48	COc1ccc(-c2csc3ncn(-c4ccccc4)c(=O)c23)cc1OC	-7%	-19%
49	CCCN1/C(=C2/SC(=S)N(CC)C2=O)C=Cc2ccccc21	-5%	-10%
50	O=C(NC1CCCC1)C(=O)N(Cc1cccnc1)C(C(=O)NCc1ccco1)c1ccccc1F (stereo not given)	-17%	i
51	COc1ccc(CCNC(=O)c2cccc([N+](=O)[O-])c2)cc1OC	0%	i
52	CCc1cccc(NC(=O)CC(c2ccc(OC)cc2)N2Cc3ccccc3C2=O)c1 (stereo not given)	-12%	-14%
53	C=CCC(C=C)S(=O)(=O)c1ccc(C)cc1 (stereo not given)	-8%	-6%
54	Cc1c(C(=O)Nc2ccccc2Cl)sc2ncnc(N(C)C3CCCCC3)c12	-11%	0%
55	Cc1ccc(S(=O)(=O)Nc2c(C)nn(C)c2C)cc1	-8%	-7%
56	O=C(Nc1ccc([N+](=O)[O-])cc1Cl)c1cccc([N+](=O)[O-])c1	-20%	-6%
57	C=CCc1ccc(OCCCCN2CC(C)OC(C)C2)c(OC)c1 (stereo not given)	-1%	2%
58	Cc1ccsc1C(=O)NNC(=O)COc1ccccc1Cl	-2%	i
59	CCCN(CC(=O)Nc1cc(C)on1)S(=O)(=O)c1cccc(C(F)(F)F)c1	-12%	i
60	Cc1ccc(NC(=O)c2ccc(NCc3ccco3)c([N+](=O)[O-])c2)cc1Cl	-16%	-25%
61	CC1=Nc2ccccc2NC(=O)C1Sc1nnc(C)s1 (stereo not given)	-15%	-24%
62	Cc1ccc(NC(=O)C2CC(O)CN2C(=O)OCc2ccccc2)c(C)c1 (stereo not given)	-10%	-3%
63	N#CN1C2CCC1CC(O)(c1ccccc1)C2 (stereo not given)	-8%	-11%
64	Cc1cc(C)c(OCC(=O)Nc2cccc(O)c2)cc1C	-29%	.
65	COCCNC(=S)N(Cc1cccs1)Cc1cc2cccc(C)c2[nH]c1=O	-9%	-19%
66	CC[C@H](C)[C@@H](C(=O)N1CCNCC1)n1cc([C@@H](N)Cc2ccc(O)cc2)nn1	-2%	i
67	CC(C)N(Cc1ccccc1)C(=O)c1ccc2nsnc2c1	0%[7.34 µM]	i[7.34 µM]
68	CCCn1c(NCc2ccc(N(C)C)cc2)nc2ccccc21	-16%	-27%
69	O=C(NNC(=O)c1ccc2ccccc2c1O)c1ccccc1Cl	-19%	.
70	CCc1cccc(NC(=O)Cn2c(=O)n3nc(-c4cccc(F)c4)nc3c3ccccc32)c1	?	?
71	CC[C@H](C)C(=O)O[C@H]1C[C@@H](C)C=C2C=C[C@H](C)[C@H](CC[C@@H]3C[C@@H](O)CC(=O)O3)[C@H]21	-13%&-24%&-13%	-7%&-12%
72	Nc1cc(N)nc(SCC(=O)N2CCN(C(=O)c3ccco3)CC2)n1	7%	-11%
73	Cc1cc(=O)[nH]c(N/N=C/C2=C(N3CCOCC3)C(=C\c3ccc(Cl)cc3)/CC2)n1	-12%	-21%
74	O=C(CCC1CCN(C(=O)c2ccco2)CC1)NCc1ccc(F)cc1	-11%	-9%
75	CCN(c1ccccc1)S(=O)(=O)c1nnc(NC(=O)COc2cccc(C)c2)s1	-2%	-5%
76	C=CCN=Cc1c(C)[nH]n(-c2ccccc2)c1=O	?	i
77	COc1ccc(NC(=O)COC(=O)CN2C(=O)C3CC=CCC3C2=O)c([N+](=O)[O-])c1 (stereo not given)	-4%	i
78	COc1cc(NC(=O)c2ccc3c(c2)OCO3)c2ncccc2c1	4%	-2%
79	O=C(Nc1cc([N+](=O)[O-])ccc1C(=O)Nc1cccnc1)c1ccccc1	?	?
80	O=P(O)(CCc1ccccc1)C(O)c1ccccc1 (stereo not given)	-16%	-17%
81	O=S1(=O)c2ccccc2Nc2ccccc21	-16%	-7%
82	CCn1c(SCCN2CCCCC2)nc2c1c(=O)n(C)c(=O)n2C	-8%	-9%
83	Cc1ccc(S(=O)(=O)c2nc(S(=O)(=O)CCO)sc2N2CCOCC2)cc1	-28%	?
84	CC1=C(C#N)C(c2cccnc2)C2=C(CC(C)(C)CC2=O)N1 (stereo not given)	-13%	-14%[1.46 µM]
85	COC(=O)c1cc2n3ccccc3c(C)c(-c3ccccc3)c-2c1C(=O)OC	77%[activator]	.
86	Fc1ccc(Nc2nc(NCc3ccccc3)nc3ccsc23)cc1	?	-17%
87	COc1cccc(CNC(=O)CCS(=O)(=O)c2cc3c(cc2C)NC(=O)CO3)c1	-5%&7%	8%&1%
88	O=C(Nc1ccc(S(=O)(=O)N2CCCCC2)cc1)C1CC1	-14%	-6%
89	CCS(=O)(=O)Nc1ccc(-c2ccc(NS(=O)(=O)CC)c(OC)c2)cc1OC	-12%	.
90	Cc1cccc(C)c1C(O)c1ncc(-c2cccc3ccccc23)[nH]1 (stereo not given)	-8%	-3%

# Further compounds:
no.	mol	Vaccinia Venus	VACV mCherry inh
91	Cc1cc(N2CCC(C(=O)Nc3ccccc3Cl)CC2)n2nc(C)c(-c3ccc(Cl)cc3)c2n1	-3%	2%
92	COc1cc(C(=O)Oc2c(Sc3ccccc3)c(C)nn2-c2ccccc2)cc(OC)c1OC	-21%	?
93	CCNc1ccc(C(=O)OCC(=O)NC(=O)NCC(C)C)cc1[N+](=O)[O-]	-5%	?
94	O=C(NCCOc1ccccc1)C1CCC(=O)N(CCCN2CCCC2=O)C1 (stereo not given)	-26%	-3%
95	CCCCn1c(N)c(N(CC(C)C)C(=O)c2oc3ccc(Br)cc3c2C)c(=O)[nH]c1=O	3%	1%
96	Cc1ccc(C(=O)c2ccccc2C(=O)O)cc1C	-12%	-4%
97	Cc1ccc(CCNC(=O)CSCc2ccc(F)cc2)cc1	-17%	-14%
98	CCOc1ccccc1OCCCC(=O)Nc1ccc(OC)nc1	-12%	-4%
99	O=C(CSc1nnc(-c2ccncc2)n1CC1CCCO1)Nc1nccs1 (stereo not given)	-16%	-5%
100	COCc1nc(-c2cc(Br)ccc2OC)no1	-3%	.
101	CCNc1nc(NCc2ccccc2)nc(SCC(=O)Nc2ccccc2)n1	-15%	-30%
102	CS(=O)(=O)c1ccc(C(=O)N2CCC(C(=O)O)(c3ccccc3)CC2)cc1	-3%	5%
103	Cc1ccc(C)c(N2CCN(C(=O)c3ccc4c(=O)n(CCc5ccccc5)c(=O)[nH]c4c3)CC2)c1	-23%	?
104	COc1ccccc1NC(=O)c1cc2ccccc2o/c1=N\O	-10%	-1%
105	O=C(NCc1nnc2n1CCN(C(=O)c1cccc(Cl)c1)CC2)C1CC1	2%	1%
106	CCc1nc2ccc(C(=O)Nc3ccc(OC)c(OC)c3)cn2c1N(C)Cc1ccc(OC)cc1	-13%	-14%
107	COc1ccc(CNC(=O)c2cnn(-c3nccc(-c4ccco4)n3)c2C)cc1OC	-14%	?
108	COC(=O)c1ccc(OC)c(Cn2c(=O)n(-c3cccc(Cl)c3)c(=O)c3c4c(sc32)CN(C(C)=O)CC4)c1	-5%	-1%
109	COc1ccc(NS(=O)(=O)c2cc(NC(=O)/C=C/c3cc(OC)c(OC)c(OC)c3)ccc2N2CCCCC2)cc1	-12%	-9%
110	O=C(NCCCN1CCOCC1)c1c(-c2ccccc2)sc2ccccc12	0%	-7%
111	CC1CCCCC1NC(=O)CSc1nnc(-c2ccncc2)n1CCCN(C)C (stereo not given)	-7%	-13%
112	COc1cccc(NC(=O)N2CCC(C(N)=O)(N3CCCCC3)CC2)c1	-4%	.
113	CCN(CC)CCCNC(=O)c1nn(-c2ccc(OC)c(Cl)c2)c(=O)c2c1c1ccccc1n2C	-11%	12%
114	COc1cccc(CN(C)C(=O)c2cccc(OCc3ccccc3)c2)c1	-12%	-3%
115	OCCNC1=NCCN1	-14%	.
116	Cc1ccc(-n2nnnc2SC(C)C(=O)NCC(=O)Nc2ccc(F)c(F)c2F)c(C)c1 (stereo not given)	-23%	-10%
